Screens deposited in PubChem BioAssay by Johns Hopkins Ion Channel Center.
KCNQ2 block – KCNQ2 potassium channel inhibitors, primary screen, cell-based, CHO-K1, FluxOR thallium flux, B-score (AID 2156). O88943. 310,000 tested, 1.1% active. B-score at 10 µM. 20 min; hits give low values; only compounds with negative scores are shown here; some inactives read as strong as hits;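 active = fluorescence ratio B-score at most minus 3 library SDs, with starting brightness B-score within 2 library SDs, cut at about -5.5 in these data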
Target sequence (O88943 whole entry, looked up): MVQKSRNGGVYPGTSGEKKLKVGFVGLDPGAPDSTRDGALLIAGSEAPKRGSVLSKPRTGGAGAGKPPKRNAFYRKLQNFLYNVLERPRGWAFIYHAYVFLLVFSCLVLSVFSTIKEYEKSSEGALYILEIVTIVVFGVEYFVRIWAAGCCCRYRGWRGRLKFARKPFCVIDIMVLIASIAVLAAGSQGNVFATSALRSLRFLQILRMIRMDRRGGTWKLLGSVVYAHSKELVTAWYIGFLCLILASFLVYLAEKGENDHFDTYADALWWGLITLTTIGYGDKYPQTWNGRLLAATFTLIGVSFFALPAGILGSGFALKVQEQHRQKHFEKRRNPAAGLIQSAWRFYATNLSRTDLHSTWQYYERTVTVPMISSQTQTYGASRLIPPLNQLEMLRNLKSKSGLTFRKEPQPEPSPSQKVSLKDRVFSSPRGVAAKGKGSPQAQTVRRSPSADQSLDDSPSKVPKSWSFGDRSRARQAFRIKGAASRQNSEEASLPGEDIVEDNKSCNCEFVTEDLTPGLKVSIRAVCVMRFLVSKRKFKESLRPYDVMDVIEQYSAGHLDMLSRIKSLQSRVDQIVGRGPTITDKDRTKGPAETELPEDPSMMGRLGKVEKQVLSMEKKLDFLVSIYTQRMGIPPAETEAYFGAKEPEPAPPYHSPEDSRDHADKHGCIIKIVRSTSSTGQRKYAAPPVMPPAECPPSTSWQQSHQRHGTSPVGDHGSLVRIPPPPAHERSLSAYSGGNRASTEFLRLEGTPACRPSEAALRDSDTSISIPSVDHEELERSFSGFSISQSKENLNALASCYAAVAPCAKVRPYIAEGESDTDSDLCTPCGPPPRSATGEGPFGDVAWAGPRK
KCNQ2 block baseline – recorded beside KCNQ2 block, whose call it bears; B-score; measured here: initial fluorescence intensity artifact check;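 brightness before thallium and not channel activity; 0 = typical well and far values either way flag optical interference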
An asterisk follows results filed as active; i = inactive. Some of the compounds tested. The share of hits here may be higher or lower than overall.

KCNQ2 block | KCNQ2 block baseline | molecule
i | -1.08 | COC(c1ccc(Cl)cc1)(c1ccc(Cl)cc1)C(Oc1nccc(C)n1)C(=O)O (stereo unspecified)
i | 0.03 | CN(C)S(=O)(=O)c1ccc(C(=O)NCC(C)(C)CN=C2NS(=O)(=O)c3ccccc32)cc1
i | 0.34 | COc1ccc(CC(C(=O)Nc2ccc(OC)cc2)c2nn[nH]n2)cc1 (stereo unspecified)
i | -0.07 | CC(Cl)C(=O)Nc1cc(C(F)(F)F)ccc1N1CCOCC1 (stereo unspecified)
i | -0.03 | COc1cc([N+](=O)[O-])ccc1NC(=O)Nc1cccnc1
-12.4* | -1.39* | CC(C)(C)c1ccc(CN(Cc2ccco2)Cc2nnnn2C2CCCC2)cc1
i | 2.07 | CCn1c(CC(=O)Nc2ccc(C)cc2)nnc1SCC(=O)NCCc1ccccc1
i | 0.84 | Cn1c(=O)n(C)c2cc([N+](=O)[O-])c(N3CCN(S(=O)(=O)c4ccc(C(C)(C)C)cc4)CC3)cc21
i | 0.82 | Cc1c(N2C(=O)CS/C2=N\N=C\c2ccc(Br)cc2)c(=O)n(-c2ccccc2)n1C
i | 0.23 | CCn1ccnc1CN(C)C(=O)c1ccc2nc(Cc3ccc(OC)cc3)oc2c1
i | 0.27 | NC(=O)C(c1ccc(Cl)cc1)c1ccc(Sc2ccc(Cl)cc2)nn1 (stereo unspecified)
i | -0.07 | CCN(CC)C(=O)Cn1c(=O)n(CC(=O)N2CCCCC2)c(=O)c2sccc21
i | -0.34 | COc1cc(/C=N/NC(=O)Cn2nc([N+](=O)[O-])cc2C)cc(Br)c1OCc1ccccc1
i | -0.12 | CC(C)OCCCNc1ncc2c(n1)CC(c1ccccc1)CC2=O (stereo unspecified)
i | 1.73 | COc1ccc(CC(=O)NCc2nnc(SCc3ccc(C)cc3)n2C)cc1
i | 2.09 | Cc1cccc(C)c1-n1c(C)nn(CC#N)c1=O
-6.3* | 1.18* | CCCN(CCC)CC(O)Cn1cc(/C=C/C(=O)c2ccccc2)c2ccccc21 (stereo unspecified)
i | 2.73 | CC(=O)c1cccc(CN2CCC(CO)(CCCc3ccccc3)CC2)c1
i | 0.56 | COC(=O)c1sccc1NC(=O)c1cc(-c2cc(C)ccc2C)nc2ccccc12
i | -1.37 | CCOc1ccc(NC(=O)CSc2nnc(-c3ccco3)n2N)cc1
i | -1.84 | COc1ccccc1C(=O)Nc1c(C(=O)N2CCN(C)CC2)oc2ccccc12
i | 0.84 | O=C(/C=C/c1ccccc1)NC(=S)Nc1ncccn1
i | 1.26 | Cn1nc(NC(=O)C(C)(C)C)c2c(F)cccc21
i | 0.03 | COc1cccc(C2CC(=O)C3=C(C2)Nc2ccccc2N(C(=O)CCC(=O)O)C3c2ccc(F)cc2)c1 (stereo unspecified)
i | -0.69 | Cc1ccc(NS(=O)(=O)c2cccc(C(=O)NCC(c3cccs3)N(C)C)c2)cc1 (stereo unspecified)
i | 0.55 | CCCc1cc(C(=O)N2CCCC(Cc3ccccc3C)(C(=O)OCC)C2)no1 (stereo unspecified)
i | -0.11 | Cc1ccc(Nc2ccc(C(=O)NCCc3ccccc3)cn2)cc1
i | 2.89 | CCC(=O)N/C(N)=N/c1nc2ccccc2o1
i | -0.12 | CC(C)COC(=O)c1ccc(NC(=O)C2C3CCC(C3)C2C(=O)O)cc1 (stereo unspecified)
i | 0.54 | COc1ccc(NC(=O)CS(=O)CC(=O)Nc2ccc(F)cc2F)cc1 (stereo unspecified)

Look-ups from above.
KCNQ2 block baseline result of CC(=O)c1cccc(CN2CCC(CO)(CCCc3ccccc3)CC2)c1 → 2.73
KCNQ2 block baseline result of CC(C)COC(=O)c1ccc(NC(=O)C2C3CCC(C3)C2C(=O)O)cc1 (stereo unspecified) → -0.12

16 of these compounds, set out differently:
Order of results: KCNQ2 block | KCNQ2 block baseline
COc1ccc(CC(=O)NCc2nnc(SCc3ccc(C)cc3)n2C)cc1
  i | 1.73
Cc1cccc(C)c1-n1c(C)nn(CC#N)c1=O
  i | 2.09
CCCN(CCC)CC(O)Cn1cc(/C=C/C(=O)c2ccccc2)c2ccccc21 (stereo unspecified)
  -6.3* | 1.18*
CC(=O)c1cccc(CN2CCC(CO)(CCCc3ccccc3)CC2)c1
  i | 2.73
COC(=O)c1sccc1NC(=O)c1cc(-c2cc(C)ccc2C)nc2ccccc12
  i | 0.56
CCOc1ccc(NC(=O)CSc2nnc(-c3ccco3)n2N)cc1
  i | -1.37
COc1ccccc1C(=O)Nc1c(C(=O)N2CCN(C)CC2)oc2ccccc12
  i | -1.84
O=C(/C=C/c1ccccc1)NC(=S)Nc1ncccn1
  i | 0.84
Cn1nc(NC(=O)C(C)(C)C)c2c(F)cccc21
  i | 1.26
COc1cccc(C2CC(=O)C3=C(C2)Nc2ccccc2N(C(=O)CCC(=O)O)C3c2ccc(F)cc2)c1 (stereo unspecified)
  i | 0.03
Cc1ccc(NS(=O)(=O)c2cccc(C(=O)NCC(c3cccs3)N(C)C)c2)cc1 (stereo unspecified)
  i | -0.69
CCCc1cc(C(=O)N2CCCC(Cc3ccccc3C)(C(=O)OCC)C2)no1 (stereo unspecified)
  i | 0.55
Cc1ccc(Nc2ccc(C(=O)NCCc3ccccc3)cn2)cc1
  i | -0.11
CCC(=O)N/C(N)=N/c1nc2ccccc2o1
  i | 2.89
CC(C)COC(=O)c1ccc(NC(=O)C2C3CCC(C3)C2C(=O)O)cc1 (stereo unspecified)
  i | -0.12
COc1ccc(NC(=O)CS(=O)CC(=O)Nc2ccc(F)cc2F)cc1 (stereo unspecified)
  i | 0.54

Following part
KCNQ2 block | KCNQ2 block baseline | molecule
i | -2.38 | COc1ccc(C(=O)c2sc(Nc3ccccc3)c(C(=O)Nc3ccc(OC)c(OC)c3)c2N)cc1
i | -2.26 | CON/C=C(\C=Nc1ccc(Cl)cc1)c1ncc(C(F)(F)F)cc1Cl
i | 1.03 | O=C(COC(=O)c1ccccc1)Nc1ccccc1Br
i | 0.67 | O=C(NCCO)c1scc2c1OCCO2
i | 0.25 | CCOC(=O)C1(Cc2cccc(OC)c2)CCN(Cc2cc(OC)ccc2OC)CC1
i | 0.85 | [O-][n+]1ccccc1SCc1ccccc1
i | 0.49 | Cc1onc(-c2c(Cl)cccc2Cl)c1C(=O)NC1C(=O)N2C1SC(C)(C)C2C(=O)O (stereo unspecified)
i | -1.68 | COC(=O)CCCC1=CC2=C(c3ccccc3)C(=O)C(C)(OC(=O)C3CCCC3)C(=O)C2=CN1c1ccccc1 (stereo unspecified)
i | 0.33 | O=C(NCc1ccccc1)c1onc(CSc2ccccn2)c1C(=O)NCc1ccccc1
i | -0.17 | O=C1NCCN(Cc2cccc(Oc3ccccc3)c2)C1CC(=O)N1CCCCC1 (stereo unspecified)
i | -1.86 | CCCNC(=O)CSc1nc(COc2ccccc2)nc2ccccc12
i | -0.43 | CC(=O)Oc1ccc(-c2csc(Nc3cccc(C)n3)n2)cc1
i | 1.54 | Oc1c(C(c2cccs2)N2CCN(c3cccc(Cl)c3)CC2)sc2ncnn12 (stereo unspecified)
i | -0.43 | CC(=O)N1CC2(C)CN(C(C)=O)CC(C)(C1)C2O (stereo unspecified)
i | 0.88 | CC(CC(=O)Nc1cc(C(F)(F)F)ccc1Cl)c1ccccc1 (stereo unspecified)
i | 1.92 | CN(C)CCN(C(=O)/C=C/c1cccs1)c1nc2c(F)cc(F)cc2s1
i | 0.17 | O=[N+]([O-])c1ccc(N2CCCC2)nc1N1CCCC1
i | -0.91 | COC(=O)C1=C(C)N=C2SC(C)C(=O)N2C1c1cccc(F)c1 (stereo unspecified)
i | -1.59 | O=C(CN(C1CCCCC1)S(=O)(=O)c1ccc(Cl)cc1)NCc1ccncc1
i | 0.79 | CCN(CC)c1ccc(/C=N/n2nnnc2N)c(O)c1
i | 0.16 | O=[N+]([O-])c1ccc(N2CCOCC2)cc1NC(c1ccccc1)c1ccccc1
i | -1.33 | COc1ccc(OC)c(NC(=O)Cc2c(C(=O)O)n(C)c3ccccc23)c1
i | 0.51 | Cc1ccc(-n2cc(CN3CCC(O)(c4ccccn4)CC3)c(-c3ccc(F)cc3)n2)cc1
i | 2.25 | CC(C)Cn1c(=O)c2c(nc3n2CCS3)n(C)c1=O
-6.19* | 1.1* | COc1cccc(C(=O)Nc2cccc3ccccc23)c1OC
i | 0.46 | CCOc1cc(Br)c(C(=O)O)cc1OCC
i | 0.31 | Cc1ccc(NC(=O)CSc2nccn2C)cc1S(=O)(=O)N1CCOCC1
i | 1.22 | Cc1noc(/C=C/c2cccnc2)c1[N+](=O)[O-]
i | -0.29 | CCNc1nc(NC(C)(C)C)nc(N2CCCCC2)n1
i | 0.37 | COc1ccc(/C=N/NC(=O)c2cc(Br)ccc2O)cc1Cn1cc(Cl)cn1
i | -1.61 | COc1ccc(N2CCN(CCC(O)c3ccc4ccccc4c3)CC2)cc1 (stereo unspecified)
i | 1.91 | O=C(Nc1nnc(-c2ccc(F)cc2)s1)Nc1ccccc1F
i | 0.43 | Cc1ccc(S(=O)(=O)NCc2ccc(C(=O)NC3CC3)cc2)cc1
i | 2.81 | CCCCn1c(-c2cccc(F)c2)nc2c1c(=O)[nH]c(=O)n2CC(C)C
i | -0.87 | Cc1ccc(S(=O)(=O)/C(C#N)=C/c2c(N3CCC(C(N)=O)CC3)nc3c(C)cccn3c2=O)cc1
i | -1.51 | CCS(=O)(=O)N1Cc2ccccc2CC1C(=O)NCCc1c[nH]c2ccccc12 (stereo unspecified)
i | 0.09 | Cc1cc(C)cc(N=C2SC(CC(=O)Nc3ccccc3)C(=O)N2CCN2CCOCC2)c1 (stereo unspecified)
i | -0.13 | COc1ccc(NC(=S)NC2CCCCC2)c(OC)c1
i | -0.87 | Cc1c(C(=O)O)oc2ccc(S(=O)(=O)N3CCCC3)cc12
i | -0.62 | Cc1n[nH]c(C)c1S(=O)(=O)N1CCC(C(=O)O)CC1
i | -0.95 | N#C/C(=C\c1c(N2CCOCC2)nc2ccccn2c1=O)C(=O)NC1CCS(=O)(=O)C1 (stereo unspecified)
i | 1.48 | CCN1C(=C2C(=O)c3ccccc3C2=O)C=Cc2ccccc21
i | 1.1 | O=C(c1cc(-c2ccccn2)nc2ccc(Br)cc12)N1CCN(S(=O)(=O)c2ccccc2)CC1
i | 3.3 | CC(=O)Nc1cccc(C(=O)OCC(=O)NCc2ccc(F)cc2)c1
i | 1.03 | CCCCOc1ccc(C(=O)NCC(=O)OCC(=O)N2CCN(S(=O)(=O)c3ccc(C)cc3C)CC2)cc1
i | 0.21 | COc1ccc(/C=C/C(=O)c2ccc(O)cc2)cc1CN1CCOCC1
i | 1.58 | Cn1c(/N=C/c2ccccc2[N+](=O)[O-])nc2ccccc21
i | -0.04 | COc1cccc(-c2nc(-c3ccc4c(c3)NC(=O)CO4)cs2)c1
i | -0.03 | COc1ccccc1CNC(=O)CS(=O)Cc1nc(-c2ccccc2C)oc1C (stereo unspecified)
i | -0.58 | CC(NC(=O)c1ccc2c(c1)C(=O)N(Cc1cccnc1)C2=O)c1ccccc1 (stereo unspecified)

(cont.)
KCNQ2 block | KCNQ2 block baseline | molecule
i | -0.05 | O=C(NC(Cc1ccccc1)C(=O)N1CCCC1C(=O)O)c1ccccc1 (stereo unspecified)
i | 1.02 | Cc1ccc(C)n1-c1cccc(C(=O)O)c1
i | -0.21 | Cn1c(=O)n(CCc2ccccc2)c(=O)c2c1nc1n2CCCN1c1ccccc1
i | -0.61 | Cn1cc(CN2CCN(c3cnccn3)CC2)c(-c2cccc(Cl)c2)n1
i | 0.7 | C=CCc1cc(Cl)ccc1OCCCNC(C)CC (stereo unspecified)
i | -0.62 | Cc1ccc(C)c(NC(=O)C2CCCN(S(=O)(=O)c3ccc4[nH]c(=O)ccc4c3)C2)c1 (stereo unspecified)
i | 8.21 | Cc1ccnc(N/C=C(\C#N)c2nc(-c3cccc(Br)c3)cs2)c1
i | 5.5 | O=C(/C=C/c1ccc(N2CCC(c3ccccc3)=N2)cc1)c1ccccc1
i | 0.26 | CCCC(=O)N1N=C(c2ccccc2)CC1c1cn(C)c2ccccc12 (stereo unspecified)
i | -0.53 | Cc1cccc(OCCCC(=O)N2CCCc3ccccc32)c1C
i | -0.84 | CCC(C)C1NC(=S)N(Cc2ccccc2)C1=O (stereo unspecified)
i | 1.53 | Cc1ccc(-n2c(C)cc(/C=N/NC(=O)Cn3c4ccccc4c(=O)c4ccccc43)c2C)cc1
i | -1.08 | CCOC(=O)N1CCN(Cc2ccc(O)c3ncccc23)CC1
i | -0.36 | CCn1c(=O)c(C(=O)CC#N)c(N)n(Cc2ccccc2)c1=O
-8.25* | 1.13* | O=C(CSC1=NCCS1)NC(c1ccccc1)c1ccccc1
i | 0.57 | CCOC(=O)C1(C(=O)OCC)CC1c1ccccc1 (stereo unspecified)
i | -1.99 | COc1cc(CO)ccc1OCc1ccc(Cl)nc1
i | -0.76 | COc1cccc(NC(=O)CCN2CCC(C(N)=O)CC2)c1
i | 0.57 | CCOc1cc(C(=O)Nc2ccc(C)cc2O)ccc1OCC(=O)N1CCOCC1
i | 3.71 | CCN(CC)S(=O)(=O)c1ccc(C)c(NC(=S)N2CCN(Cc3ccc4c(c3)OCO4)CC2)c1
i | 0.86 | Cn1c(SCC(=O)Nc2nccs2)nnc1C1CC1
i | -0.76 | COc1ccccc1NC(=S)Nc1ccc2cn[nH]c2c1
i | -0.01 | CC1CCCN(S(=O)(=O)c2ccc(CN3C(=O)c4cccnc4C3=O)cc2)C1 (stereo unspecified)
i | 0.16 | CCc1nc2c3cnn(-c4cc(Cl)ccc4C)c3ncn2n1
i | 0.22 | O=C(N/N=C/c1ccc(O)c(O)c1)c1cc(-c2ccccc2)nc2ccccc12
i | 0.91 | Cc1ccc(C(=O)OC(C)CN2CCN(C)CC2)cc1 (stereo unspecified)
i | 0.26 | CCOc1ccccc1CNC(=O)C1CCCN(c2ncnc3c2nc2n3CCCCC2)C1 (stereo unspecified)
i | 0.32 | CCOC(=O)c1c(C)n(C)c2ccc(OCC(O)Cn3c(C)nc4ccccc43)cc12 (stereo unspecified)
i | -0.31 | Cc1ccc(NNC(=O)c2ccc(Cl)cc2)nn1
